Bioassay records as filed in PubChem BioAssay.
Vaccinia stage: blocks a specific stage of Vaccinia orthopoxvirus infection, primary screen, cell-based, single point; Vaccinia-infected cells, mCherry/Venus stage reporter fluorescence; hits give low values; some inactives read as strong as hits; hit rate 0.01% among 89,000; AID 1053133, 2014; activity change (mCherry), % (test concentration not listed);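 active means mCherry past -33% and 40 or more points under the early reporter, replicates agreeing; inconclusive means past -33% without that gap or agreement; tested in A549 cells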;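 further: scaled between vehicle wells and reference inhibitor wells; 23 nL library stock went into each well; one replicate is shown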
Vaccinia stage Venus: recorded beside Vaccinia stage, whose call it bears; activity change (Venus), %; measured here: Venus reporter, other viral stage;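 negative = less Venus signal; first of two replicates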
* = called active by the depositor; ? = inconclusive; · = no result given. Only part of the results is shown, so the mix of outcomes need not match the whole.

no. | canonical_smiles | Vaccinia stage | Vaccinia stage Venus
1 | COc1cccc(S(=O)(=O)Nc2ccc3c(c2)[C@H]2C[C@@H](CC(=O)O)O[C@@H](CO)[C@H]2O3)c1 | 10 | 7
2 | COc1ccc2c3c(n(C)c2c1)[C@H](CO)N(C(=O)CN(C)C)CC31CCN(S(C)(=O)=O)CC1 | 7 | 1
3 | C[C@@H]1CN([C@@H](C)CO)C(=O)c2cc(NC(=O)Cc3ccccc3)ccc2O[C@@H]1CN(C)Cc1ccc(C(=O)Nc2ccccc2N)cc1 | -1 | -4
4 | CCCC(=O)N1CCC2(CC1)CN(Cc1ccncc1)[C@H](CO)c1[nH]c3cc(OC)ccc3c12 | 11 | 12
5 | CCC(=O)N1CC2(C1)[C@H](c1ccccc1)[C@H](CO)N2C(=O)c1ccncc1 | 24 | 14
6 | O=C(C[C@H]1C[C@H]2c3cc(NS(=O)(=O)c4ccccc4)ccc3O[C@H]2[C@@H](CO)O1)NCC1CC1 | 18 | 17
7 | CC(=O)N1Cc2cc(C(=O)NCC(F)(F)F)nc(-c3cccc(-c4cncnc4)c3)c2[C@H]1CCO | 22 | 14
8 | CCCN(C)C[C@H]1Oc2cc(C#CC3CCCC3)ccc2S(=O)(=O)N([C@@H](C)CO)C[C@H]1C | ? | ·

Next records.
no. | canonical_smiles | Vaccinia stage | Vaccinia stage Venus
9 | O=C(O)[C@H]1[C@H](CO)[C@H]2Cn3c(ccc(-c4ccccc4F)c3=O)[C@H]2N1Cc1ccccc1 | 21 | 21
10 | CO[C@@H]1CN(C)C(=O)c2ccc(NC(=O)C3CCOCC3)cc2OC[C@H](C)N(Cc2cccnc2)C[C@H]1C | 18 | 5
11 | C[C@@H]1CN([C@@H](C)CO)C(=O)c2cc(NC(=O)c3ccncc3)ccc2O[C@@H](C)CCCCO[C@@H]1CN(C)Cc1ccc(C(=O)O)cc1 | 20 | 9
12 | CO[C@H]1CN(C)C(=O)c2cc(NC(=O)c3ccccc3)ccc2OC[C@@H](C)N(C(=O)C2CC2)C[C@@H]1C | -2 | 2
13 | C[C@@H](NC(=O)C[C@H]1C[C@H]2c3cc(NC(=O)C4CCC4)ccc3O[C@H]2[C@H](CO)O1)c1ccccc1 | 19 | 14
14 | C[C@@H]1CN([C@H](C)CO)C(=O)Cc2cc(NC(=O)Cc3ccccc3)ccc2O[C@H]1CN(C)C(=O)Nc1ccc(C(F)(F)F)cc1 | 7 | 1
15 | O=C(C1CCCC1)N1CC(=O)N2[C@H](CO)[C@H](c3ccc(C#CCc4ccccc4)cc3)[C@H]2C1 | -21 | -11
16 | CN(C[C@@H]1N[C@H](CO)[C@@H]1c1ccc(-c2cccc(F)c2)cc1)C(=O)CC1CC1 | -26 | -7

Next results:
no. | canonical_smiles | Vaccinia stage | Vaccinia stage Venus
17 | CO[C@H]1CN(C)C(=O)c2cc(NC(=O)C3CCCC3)ccc2OC[C@H](C)N(C(=O)CC2CC2)C[C@@H]1C | 6 | 6
18 | Cc1noc(C)c1NC(=O)Nc1ccc2c(c1)C(=O)N([C@@H](C)CO)C[C@H](C)[C@@H](CN(C)C(=O)NC1CCCCC1)O2 | 5 | 9
19 | C[C@H]1CN([C@@H](C)CO)C(=O)c2cc(-c3cncnc3)cnc2O[C@@H]1CN(C)Cc1ccc(F)cc1 | 6 | 3
20 | C[C@@H]1CN([C@H](C)CO)C(=O)c2cc(C3=CCCC3)cnc2O[C@@H]1CN(C)C(=O)c1ccncc1 | 19 | 12
21 | CO[C@H]1CN(C)C(=O)c2ccc(NC(=O)Nc3cccc(F)c3)cc2OC[C@H](C)N(C(C)=O)C[C@H]1C | -4 | -6
22 | CC(C)NC(=O)N(C)C[C@@H]1Oc2ccc(NC(=O)CCCCCC(=O)Nc3ccccc3N)cc2CC(=O)N([C@@H](C)CO)C[C@@H]1C | 13 | 4
23 | CNC[C@H]1Oc2ccc(NC(=O)Cn3cnnn3)cc2C(=O)N([C@H](C)CO)C[C@H]1C | 0 | -6
24 | CC(C)C#Cc1ccc([C@H]2[C@@H](CO)N(C(=O)c3cccc(F)c3)[C@H]2C#N)cc1 | 13 | 13

New compounds follow:
no. | canonical_smiles | Vaccinia stage | Vaccinia stage Venus
25 | O=C(CCN1CCCCC1)NCC[C@@H]1CC[C@@H](NC(=O)c2ccc(F)cc2)[C@H](CO)O1 | 6 | 0
26 | COCC(=O)N1C[C@H]2[C@@H](c3ccccc31)[C@@H](CO)N2Cc1ccccc1Cl | -2 | 7
27 | CN(C)CC(=O)N[C@H]1C[C@@H]2O[C@H](CO)CC[C@@H]2O[C@@H]1CCc1ccc(C2=CCCCC2)cc1 | -25 | -15
28 | COc1ccc(NC(=O)Nc2ccc3c(c2)CC(=O)N([C@H](C)CO)C[C@@H](C)[C@H](CN(C)CC2CC2)O3)cc1 | -12 | -8
29 | Cc1noc(C)c1NC(=O)N(C)C[C@@H]1Oc2ccc(NC(=O)C3CCCCC3)cc2CC(=O)N([C@H](C)CO)C[C@@H]1C | 7 | 3
30 | CCCC#Cc1cnc2c(c1)C(=O)N([C@@H](C)CO)C[C@@H](C)[C@H](CN(C)C(=O)Cc1cccnc1)O2 | 1 | 2
31 | COc1ccc(C#Cc2ccc([C@H]3[C@@H](CO)N4C(=O)CN(C(=O)NC(C)C)C[C@@H]34)cc2)cc1 | -8 | 4
32 | COc1ccc2c3c([nH]c2c1)[C@H](CO)NCC31CCN(C(=O)c2ccccc2)CC1 | 2 | -2

Compound profiles (already shown). Order of values: Vaccinia stage	Vaccinia stage Venus
`CN(C)CC(=O)N[C@H]1C[C@@H]2O[C@H](CO)CC[C@@H]2O[C@@H]1CCc1ccc(C2=CCCCC2)cc1` is listed with -25	-15
`O=C(CCN1CCCCC1)NCC[C@@H]1CC[C@@H](NC(=O)c2ccc(F)cc2)[C@H](CO)O1` is listed with 6	0

Back to the main list, repeating the four entries before the break.
no. | canonical_smiles | Vaccinia stage | Vaccinia stage Venus
29 | Cc1noc(C)c1NC(=O)N(C)C[C@@H]1Oc2ccc(NC(=O)C3CCCCC3)cc2CC(=O)N([C@H](C)CO)C[C@@H]1C | 7 | 3
30 | CCCC#Cc1cnc2c(c1)C(=O)N([C@@H](C)CO)C[C@@H](C)[C@H](CN(C)C(=O)Cc1cccnc1)O2 | 1 | 2
31 | COc1ccc(C#Cc2ccc([C@H]3[C@@H](CO)N4C(=O)CN(C(=O)NC(C)C)C[C@@H]34)cc2)cc1 | -8 | 4
32 | COc1ccc2c3c([nH]c2c1)[C@H](CO)NCC31CCN(C(=O)c2ccccc2)CC1 | 2 | -2
33 | Cc1noc(C)c1S(=O)(=O)Nc1ccc2c(c1)C(=O)N([C@@H](C)CO)C[C@H](C)[C@@H](CN(C)C(=O)Nc1ccc(C(F)(F)F)cc1)OCCCC[C@H](C)O2 | ? | ·
34 | CO[C@@H](CN(C)Cc1cc(F)ccc1F)[C@H](C)CN([C@H](C)CO)S(=O)(=O)c1ccc(C)cc1 | -9 | 0
35 | CN1c2ccc(-c3ccccc3F)cc2[C@@H]2[C@@H](CCN2S(=O)(=O)c2ccccc2)[C@@H]1CO | -20 | -22
36 | CO[C@@H]1CN(C)C(=O)c2cc(NC(=O)C3CCCCC3)ccc2OC[C@H](C)N(C)C[C@H]1C | -17 | -13
37 | C[C@@H]1CN([C@H](C)CO)S(=O)(=O)c2ccc(C3=CCCC3)cc2O[C@H]1CN(C)S(=O)(=O)c1cn(C)cn1 | 27 | 17
38 | COc1ccc(CN(C)C[C@@H]2OCCCC[C@H](C)Oc3ccc(NC(=O)c4ccncc4)cc3C(=O)N([C@@H](C)CO)C[C@H]2C)cc1 | 0 | -3
39 | CC(C)NC(=O)N(C)C[C@H]1Oc2ccc(NC(=O)CCN3CCOCC3)cc2C(=O)N([C@@H](C)CO)C[C@H]1C | 12 | 7
40 | COCC#Cc1cnc2c(c1)C(=O)N([C@H](C)CO)C[C@H](C)[C@H](CN(C)C(C)=O)O2 | 12 | 8

New compounds follow
no. | canonical_smiles | Vaccinia stage | Vaccinia stage Venus
41 | CO[C@@H]1CN(C)C(=O)c2ccc(NC(=O)NC(C)C)cc2OC[C@@H](C)N(C(=O)C2CCC2)C[C@H]1C | 1 | 3
42 | CO[C@H]1CN(C)C(=O)c2ccc(NC(=O)c3nc4ccccc4s3)cc2OC[C@@H](C)N(Cc2cncnc2)C[C@H]1C | -28 | -24
43 | C[C@@H]1CCCCO[C@H](CN(C)C(=O)C2CCCCC2)[C@H](C)CN([C@@H](C)CO)C(=O)c2cc(NS(=O)(=O)c3ccc(F)cc3)ccc2O1 | -10 | -3
44 | CO[C@@H]1CN(C)C(=O)c2ccc(NC(=O)C3CC3)cc2OC[C@@H](C)N(Cc2ccncc2)C[C@H]1C | 3 | 3
45 | C[C@@H]1CN([C@H](C)CO)C(=O)c2cc(NC(=O)CCC(F)(F)F)ccc2O[C@@H](C)CCCCO[C@H]1CN(C)C(=O)NC1CCCCC1 | -7 | -4
46 | C/C=C/c1ccc([C@@H]2[C@@H](CO)N(C(C)=O)[C@H]2CN(C)C(=O)NC2CCCC2)cc1 | 1 | 2
47 | C[C@@H]1CN([C@@H](C)CO)C(=O)c2cc(C#C[C@@H](C)O)cnc2O[C@@H]1CN(C)Cc1cccc(C(=O)O)c1 | 12 | -6
48 | C[C@@H]1CN([C@H](C)CO)C(=O)Cc2cc(NS(=O)(=O)c3cccs3)ccc2O[C@H]1CN(C)C(=O)NC1CCCCC1 | 6 | 6

Going on with the list.
no. | canonical_smiles | Vaccinia stage | Vaccinia stage Venus
49 | C[C@H](CO)N1C[C@H](C)[C@H](CN(C)C(=O)Nc2ccc3c(c2)OCO3)Oc2ccc(NC(=O)C3CCCCC3)cc2C1=O | -4 | -5
50 | CN(C)c1ccc2c(c1)[C@@H]1C[C@H](CC(=O)NCCN3CCCCC3)O[C@@H](CO)[C@@H]1O2 | -1 | 2
51 | CNC[C@@H]1Oc2ccc(NC(=O)NC3CCCCC3)cc2CC(=O)N([C@H](C)CO)C[C@H]1C | 5 | 8
52 | O=C(C[C@@H]1CC[C@H](NS(=O)(=O)c2ccc(F)cc2)[C@@H](CO)O1)N1CCN(c2ccccc2)CC1 | -4 | -4
53 | COc1cccc(-c2ccc([C@@H]3[C@@H](CO)N4CCCCN(C(=O)Cc5ccncc5)C[C@@H]34)cc2)c1 | 20 | 1
54 | COc1ccc(S(=O)(=O)Nc2ccc3c(c2)C(=O)N([C@H](C)CO)C[C@H](C)[C@H](CN(C)Cc2ccc(C(=O)Nc4ccccc4N)cc2)O3)cc1 | -1 | -7
55 | C[C@@H]1CCCCO[C@H](CN(C)Cc2ccc(C(F)(F)F)cc2)[C@@H](C)CN([C@H](C)CO)C(=O)c2cc(NC(=O)CCCCCC(=O)Nc3ccccc3N)ccc2O1 | -17 | -16
56 | COC(=O)c1cn(C[C@H](Cc2ccccc2)NC(=O)c2ccccc2)nn1 | 17 | 19

The listing continues:
no. | canonical_smiles | Vaccinia stage | Vaccinia stage Venus
57 | COCC(=O)N(C)C[C@@H]1Oc2cc(-c3ccc(C)cc3)ccc2S(=O)(=O)N([C@@H](C)CO)C[C@@H]1C | -20 | -19
58 | C[C@@H]1CCCCO[C@@H](CN(C)CC2CCCCC2)[C@H](C)CN([C@H](C)CO)C(=O)c2cc(NC(=O)C3CCCCC3)ccc2O1 | ? | ·
59 | COC(=O)C[C@@H]1C[C@@H]2c3cc(NC(=O)NC4CCCCC4)ccc3O[C@@H]2[C@@H](CO)O1 | 4 | 5
60 | C[C@@H]1CN([C@@H](C)CO)C(=O)c2cc(NC(=O)Nc3cccc4ccccc34)ccc2O[C@H]1CN(C)C(=O)Nc1ccc2c(c1)OCO2 | 0 | 9
61 | COc1ccc(NC(=O)N(C)C[C@@H]2Oc3ccc(NC(=O)Cn4cnnn4)cc3C(=O)N([C@H](C)CO)C[C@@H]2C)cc1 | 3 | 0
62 | CCCNC(=O)N(C)C[C@H]1Oc2cc(-c3ccncc3)ccc2S(=O)(=O)N([C@H](C)CO)C[C@H]1C | 7 | 0
63 | C[C@@H]1CN([C@@H](C)CO)C(=O)c2cc(NS(C)(=O)=O)ccc2O[C@@H]1CN(C)Cc1ccc(C(=O)Nc2ccccc2N)cc1 | -4 | -3
64 | Cc1ccc(S(=O)(=O)Nc2ccc3c(c2)CC(=O)N([C@H](C)CO)C[C@H](C)[C@@H](CN(C)Cc2ccc(C(=O)Nc4ccccc4N)cc2)O3)cc1 | 4 | -7

More compounds:
no. | canonical_smiles | Vaccinia stage | Vaccinia stage Venus
65 | CCC(=O)N1[C@H](CO)[C@H](c2ccccc2)[C@H]1CN(C)C(=O)c1ccccc1F | 3 | 8
66 | CO[C@@H]1CN(C)C(=O)c2ccc(NC(=O)c3cc(C)on3)cc2OC[C@@H](C)N(CC2CC2)C[C@H]1C | 15 | 9
67 | Cc1noc(C)c1S(=O)(=O)Nc1ccc2c(c1)C(=O)N([C@H](C)CO)C[C@@H](C)[C@@H](CN(C)C(=O)C1CCCCC1)OCCCC[C@H](C)O2 | -30 | -30
68 | C[C@@H]1CN([C@H](C)CO)C(=O)c2cc(-c3ccncc3)cnc2O[C@H]1CN(C)C(=O)CN1CCOCC1 | 21 | 2
69 | C[C@@H]1CCCCO[C@@H](CN(C)Cc2ccc(C(=O)O)cc2)[C@@H](C)CN([C@H](C)CO)C(=O)c2cc(NC(=O)Nc3ccccc3)ccc2O1 | 24 | 21
70 | Cc1cccc(-c2ccc(C3[C@@H]4CN(C(=O)C5CCC5)C[C@H]3N4)cc2)c1 (stereo partly drawn) | ? | ·
71 | CC(C)OC(=O)N(C)C[C@@H]1OCc2ccccc2-c2ccccc2C(=O)N([C@@H](C)CO)C[C@H]1C | 22 | 7
72 | C[C@@H]1CCCCO[C@@H](CN(C)C(=O)c2ccccc2)[C@H](C)CN([C@@H](C)CO)C(=O)c2cc(NC(=O)C3CCCCC3)ccc2O1 | -12 | -14
73 | C[C@@H]1CN([C@@H](C)CO)S(=O)(=O)c2ccc(C#CC3CC3)cc2O[C@@H]1CN(C)CC1CCOCC1 | -25 | -21
74 | C[C@H](CO)N1C[C@H](C)[C@@H](CN(C)CC2CCCCC2)Oc2ccc(NC(=O)C3CCCCC3)cc2CC1=O | ? | ·
